Screens from PubChem BioAssay.
VDR inh – inhibitors of human vitamin D receptor; P11473; VDR-SRC2-3 peptide fluorescence polarization, 2 h; Potency, µM, without a hit: max response, negative = inhibition, usual class: inhibitors; hit rate 0.93% among 400,000; active = well fitted inhibition curve with a large enough effect; inconclusive = small, poorly fitted or top-dose-only effect, or another doubt; inactive = no such curve, though single readings can be large or run the other way; note: series mostly up to about 120 µM
Target sequence (P11473 whole entry, looked up): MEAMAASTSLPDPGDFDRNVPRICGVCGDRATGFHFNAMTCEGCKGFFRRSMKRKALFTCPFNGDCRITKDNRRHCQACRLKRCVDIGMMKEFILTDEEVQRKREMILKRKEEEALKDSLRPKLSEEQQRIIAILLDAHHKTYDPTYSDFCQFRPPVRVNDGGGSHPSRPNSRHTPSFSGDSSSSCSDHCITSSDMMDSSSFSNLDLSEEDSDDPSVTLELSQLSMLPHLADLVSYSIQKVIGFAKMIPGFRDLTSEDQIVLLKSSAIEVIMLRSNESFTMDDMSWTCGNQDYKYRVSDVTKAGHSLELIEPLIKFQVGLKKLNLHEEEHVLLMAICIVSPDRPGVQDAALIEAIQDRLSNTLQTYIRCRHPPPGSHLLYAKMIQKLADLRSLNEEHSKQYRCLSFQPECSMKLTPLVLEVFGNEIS
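Fluorescence polarization assay of small-molecule disruption of VDR binding to coregulator peptide SRC2-3. Compounds and controls pin-transferred, then read after 2 h incubation at ambient room temperature.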
Numbers without * were called inactive; ? = inconclusive; & = joins results of further samples; [ ] = another dose, or the depositor's remark. % is set by controls: 0 for no effect and ±100 for the full control effect; potency is the fitted concentration of half-maximal effect. A portion of the library. The share of hits here may be higher or lower than overall.

CC(C)(C)c1ccc(-c2nnc(N)o2)cc1
  VDR inh: -1%

CCC1CCCCN1CCCNC(=O)CCC(=O)N1CCOc2ccccc21 (stereo not drawn)
  VDR inh: -1%

O=C(CN1C(=O)NC2(CCCCC2)C1=O)N1CCN(S(=O)(=O)c2ccc(Cl)s2)CC1
  VDR inh: 1%

O=S(=O)(c1ccccc1)N1CCC2(CCN(c3ccccc3)CC2)CC1
  VDR inh: -12%

CC(C)[C@H](NC(=O)Nc1cccc(C(F)(F)F)c1)C(=O)O
  VDR inh: -2%

Cc1ccccc1CC(=O)Nc1ccc(C(=O)N2CCCC2)cc1
  VDR inh: 4%

O=C(CNC(=O)C1CCCCC1)OCCOc1ccccc1
  VDR inh: -18%

COc1cccc(OC)c1C(=O)Nc1nc2cc3c(cc2s1)OCO3
  VDR inh: -15%

O=C(c1nc[nH]c1C(=O)N1CCN(c2ccccc2)CC1)N1CCN(c2ccccc2)CC1
  VDR inh: 2%

COc1ccc(CS(=O)(=O)CC2(O)CCN(C(=O)c3cccc(C(F)(F)F)c3)CC2)cc1
  VDR inh: 0%

O=S(=O)(c1ccc(-c2csc(Nc3ccc(F)cc3)n2)cc1)N1CCCC1
  VDR inh: 3%

CC(=O)c1ccc(OCC(O)CN2CCN(Cc3ccc4c(c3)OCO4)CC2)cc1 (stereo not drawn)
  VDR inh: ?

N#C/C(=N\Nc1cccc([N+](=O)[O-])c1)C(=O)c1ccc(Br)cc1
  VDR inh: -26%

C/C(CC(=O)N(C(C)C)C(C)C)=N\NC(=O)c1ccccc1Br
  VDR inh: 7%

CCC(C)NS(=O)(=O)c1ccc(OCC(=O)N2CCCC2)cc1 (stereo not drawn)
  VDR inh: -1%

COc1ccccc1CNC(=O)C(NS(=O)(=O)c1ccc2c(c1)OCCO2)C(C)C (stereo not drawn)
  VDR inh: ?

COc1ccc2c(c1)sc1nc(-c3ccccc3)cn12
  VDR inh: 9%

CN(C)c1nccc(N(Cc2ccccc2)Cc2ccccc2)c1C#N
  VDR inh: 17%

COc1ccc(CCC(=O)OCC(=O)c2ccc[nH]2)cc1OC
  VDR inh: 13%

CC(C)(C)NC(=O)CSc1n[nH]c(=O)n1-c1ccccc1
  VDR inh: 6%

COc1ccc(OC)c(N2C(=O)CC(Cc3cc(C)cc(C)c3)C2=O)c1 (stereo not drawn)
  VDR inh: ?

Cc1ccc(NC(=O)c2ccc(Cl)c(S(=O)(=O)N3CCCCCC3)c2)nc1
  VDR inh: -11%

O=C(CCNC(=O)c1ccccc1)NN=Cc1ccc(Br)o1
  VDR inh: 2%

CCC(C)NC(=O)C1CCN(S(=O)(=O)c2ccc(-n3cnnn3)cc2)CC1 (stereo not drawn)
  VDR inh: -1%

Cn1cc(Cl)c(-c2nc3ccccc3[nH]2)n1
  VDR inh: -3%

O=C(COC(=O)c1cc(S(=O)(=O)N2CCOCC2)c(Cl)cc1Cl)c1ccc[nH]1
  VDR inh: 2%

Cc1ccccc1NC(=O)N1CCC(NC(=O)C2CCCCC2)CC1
  VDR inh: 6%

Cc1onc(C(=O)/C=C/N(C)C)c1C(=O)Nc1nccs1
  VDR inh: 4%

Cc1ccc(C)c(NC(=O)c2ccccc2NC(=O)C2CCCO2)c1 (stereo not drawn)
  VDR inh: 20%

Cc1cccc(CCN(CC(=O)NCc2ccc(F)cc2)C(=O)c2csnn2)c1
  VDR inh: -9%

CCOc1cc(C(=O)Nc2ccc3nc(N4CCN(C)CC4)cc(C)c3c2)cc(OCC)c1OCC
  VDR inh: -2%

COc1ccc(OC)c(/C=N/c2oc(-c3ccco3)c(-c3ccco3)c2C#N)c1
  VDR inh: -5%

CC(C)c1ccc(NC(=S)Nc2cccc3ccccc23)cc1
  VDR inh: 9%

COc1ccccc1-c1noc(CSc2nc3ccc(C)cc3[nH]2)n1
  VDR inh: -22%

Cc1ccc(OCC(=O)NNC(=O)C2CCN(c3nc(C)cc(C)n3)CC2)cc1
  VDR inh: -5%

CC(=O)c1ccc(N2C(=NC(=O)C(C)C)SC3CS(=O)(=O)CC32)cc1 (stereo not drawn)
  VDR inh: 15%

CC/C(C)=C1\SC(N2CCN(c3cccc(C(F)(F)F)c3)CC2)=NC1=O
  VDR inh: -13%

Cc1ccc(NC(=O)CCC(=O)N2Cc3ccccc3Oc3ncccc32)cc1
  VDR inh: 7%

COc1cccc(NC(=O)Nc2cc(NC(=O)Nc3cccc(OC)c3)c(C)nc2C)c1
  VDR inh: 0%

CC(OC(=O)c1ccc2c(c1)OCCO2)C(=O)c1ccccc1 (stereo not drawn)
  VDR inh: -2%

COc1cccc(C(=O)NCCS(=O)(=O)NCc2cccs2)c1
  VDR inh: 6%

Cc1nc(CN(C)C(=O)CC2C(=O)NCCN2Cc2ccc(F)cc2)cs1 (stereo not drawn)
  VDR inh: -1%

Cc1cc(C)cc(OCCN2CCOCC2)c1
  VDR inh: -10%

COc1ccccc1NC(=O)c1ccc(C)s1
  VDR inh: -13%

Cc1cc(C(=O)Nc2sccc2C(N)=O)c(C)o1
  VDR inh: 9%

Cc1ccccc1Nc1nnc(SCC(=O)c2cc3ccccc3o2)s1
  VDR inh: -18%

O=C(CCc1ccccc1)Nc1ccccc1F
  VDR inh: 9%

COc1cc(Br)c(CC2c3cc(OC)c(OC)cc3CCN2C)cc1OC (stereo not drawn)
  VDR inh: -12%&-2%

Cc1occc1C(=O)NCc1nc(-c2ccc(Cl)cc2)no1
  VDR inh: -2%

CCc1ccc(OCc2cccc(C(=O)N/N=C\c3cnn(C)c3C)c2)cc1
  VDR inh: -9%

CN(Cc1ccccc1)Cc1c[nH]c2ccccc12
  VDR inh: 5%

c1cnc2ncc3sccc3c2c1
  VDR inh: -7%

O=C(COC(=O)COc1ccc(Cl)cc1)Nc1ncc(Br)s1
  VDR inh: -5%

COc1ccc(OC)c(-c2csc(NC(=O)C3c4ccccc4Oc4ccccc43)n2)c1
  VDR inh: 0%

Cc1ccc(S(=O)(=O)N2CCN(C(=O)Cn3nc(C)c([N+](=O)[O-])c3C)CC2)c(C)c1
  VDR inh: 7%

COC(=O)c1cn(NC(=O)c2cccc(OC)c2)c(=O)c2ccccc12
  VDR inh: -4%

COc1ccc(CN2C(=O)C(NC(=O)c3ccc(C)cc3)(C(F)(F)F)N=C2c2ccccc2)cc1 (stereo not drawn)
  VDR inh: -5%

Cc1c(NC(=O)C(C)Sc2nc3ccccc3c(=O)n2CCO)c(=O)n(-c2ccccc2)n1C (stereo not drawn)
  VDR inh: 3%

CCc1ccc(S(=O)(=O)c2nnn3c2nc(NCCC(C)C)c2cc(Cl)ccc23)cc1
  VDR inh: 3%

O=C(O)c1ccc2c(c1)OCCO2
  VDR inh: -9%

CC(C)CN1CCN(CC#Cc2ccccc2)CC1CCO (stereo not drawn)
  VDR inh: -11%

CC1CCCC(C)N1/N=C/c1ccccc1F (stereo not drawn)
  VDR inh: -24%

COc1cc(-c2[nH]ncc2CN(C)Cc2cc(C)[nH]n2)cc(OC)c1OC
  VDR inh: -17%

CCc1ccc(N2CC(C(=O)Nc3cc(C)ccc3F)CC2=O)cc1 (stereo not drawn)
  VDR inh: -7%

COc1ccc(-c2onc(C)c2C)cc1S(=O)(=O)NCc1ccc(C)o1
  VDR inh: 8%

COc1ccc(Nc2cc(C)nc(NCc3ccccc3)n2)cc1
  VDR inh: 15%

CCCCc1c(C)nc2c(-c3ccc(OC)cc3)c(C)[nH]n2c1=O
  VDR inh: 4%

CCSC1=N/C(=C/c2ccsc2)C(=O)N1c1ccccc1
  VDR inh: -1%

CCSc1ncc(Cl)c(C(=O)Nc2sc3c(c2C(=O)NCc2cccnc2)CCCC3)n1
  VDR inh: 15%

CC(C)C(=O)N1CCN(c2ccc(NC(=O)c3cccs3)cc2Cl)CC1
  VDR inh: -8%

Quoted at random: 4 records from the list.
CC/C(C)=C1\SC(N2CCN(c3cccc(C(F)(F)F)c3)CC2)=NC1=O
  VDR inh: -13%

CCC1CCCCN1CCCNC(=O)CCC(=O)N1CCOc2ccccc21 (stereo not drawn)
  VDR inh: -1%

O=C(COC(=O)COc1ccc(Cl)cc1)Nc1ncc(Br)s1
  VDR inh: -5%

O=C(CNC(=O)C1CCCCC1)OCCOc1ccccc1
  VDR inh: -18%

Further compounds follow:
Cc1ccc(CNCC(O)(c2ccccc2)c2ccc(Cl)cc2)cc1 (stereo not drawn)
  VDR inh: -14%

C=CCNC(=O)c1ccc([N+](=O)[O-])c(Cl)c1
  VDR inh: -2%

O=C(Nc1ccc(F)cc1)C1CCN(c2nnnn2-c2ccccc2)CC1
  VDR inh: -6%

COc1ccc(CC(=O)Nc2nnc(CC(C)C)s2)cc1S(=O)(=O)N1CCOCC1
  VDR inh: -7%

COc1ccc(C(=O)OCCN2C(=O)c3ccccc3C2=O)cc1
  VDR inh: 8%

COc1cccc(-c2ccc(=O)n(CC(=O)Nc3cc4c(cc3NC(C)=O)OCCO4)n2)c1
  VDR inh: 13%

CCC(=O)N1c2ccccc2-c2nnc(SC)nc2OC1c1ccc(N(C)C)cc1 (stereo not drawn)
  VDR inh: -12%

C=CCN(C(=O)Nc1ccc(F)cc1)C1CC(=O)N(c2ccc(OC)cc2)C1=O (stereo not drawn)
  VDR inh: 14%

N#CC1=C(N)OC2=C(CC/C2=C\c2ccccc2Cl)C1c1ccccc1Cl (stereo not drawn)
  VDR inh: -13%

CN1CCN(S(=O)(=O)c2ccc(Sc3nnnn3-c3ccccc3)c([N+](=O)[O-])c2)CC1
  VDR inh: -23%

Cc1nc2scc(-c3ccc(C(C)(C)C)cc3)c2c(=O)n1N
  VDR inh: 5%

O=c1[nH]c(-c2ccncc2)nc2ccccc12
  VDR inh: 79µM*

Cc1nc(N(C)C)ncc1C(=O)O
  VDR inh: 5%

FC(F)Sc1ccc(NC(=S)NC2CCCC2)cc1
  VDR inh: 0%

Cc1cc(N2CCN(c3nc(-c4ccccc4)cs3)CC2)c2ccccc2n1
  VDR inh: 2%

CC(=O)NCc1nc2ccccc2n1C(C)C
  VDR inh: -6%

Cc1ccc(/C=C/S(=O)(=O)NCCC(=O)NCc2ccc(F)cc2)cc1
  VDR inh: 5%

COc1ccc(CC(=O)NCc2ccccc2)cc1
  VDR inh: 1%

CCC(C)NC(=O)Cn1cnc2sc(C)c(S(=O)(=O)N3CCCCC3)c2c1=O (stereo not drawn)
  VDR inh: -18%

CCN(CC)CC#CC(C)OCOCC#CCOC (stereo not drawn)
  VDR inh: 8%

CN1CCN(NS(=O)(=O)c2cccs2)CC1
  VDR inh: -20%

COc1ccccc1NCCC(=O)OCC(=O)Nc1ccc(Cl)cn1
  VDR inh: -7%

CN(Cc1cnn(C)c1)Cc1nc(Cc2ccccc2Cl)no1
  VDR inh: 1%

CCn1cc([N+](=O)[O-])c(C(=O)N2CCCC2)n1
  VDR inh: 13%

Cn1cnc(S(=O)(=O)Nc2cc(C(F)(F)F)ccc2N2CCOCC2)c1
  VDR inh: -7%

CCn1nc(C)c(CNC(=O)c2cc(COc3ccc(F)cc3Cl)on2)c1C
  VDR inh: -2%

CCCC(C(=O)OCC)P(=O)(c1ccccc1)c1ccccc1 (stereo not drawn)
  VDR inh: -10%

CCOc1ccc(C2C(C#N)=C(N)Oc3cc(C)oc(=O)c32)cc1 (stereo not drawn)
  VDR inh: 0%

N#Cc1ccc(Oc2ccc(S(=O)(=O)N3CCOCC3)cn2)cc1
  VDR inh: 18%

CCc1ccc(NC(=O)Nc2cc(C(=O)O)ccc2N2CC3CC(C2)c2cccc(=O)n2C3)cc1 (stereo not drawn)
  VDR inh: -12%

CNC(=O)N(O)C1N(NC(=O)Nc2cccc3ccccc23)C(=S)SC1(C)C (stereo not drawn)
  VDR inh: 43%[activator]

O=C(O)CCn1ccc2cc(S(=O)(=O)N3CCCCC3)ccc21
  VDR inh: 5%

O=[N+]([O-])c1ccc(-c2cnc3ccccc3n2)cc1
  VDR inh: 1%

C/C(CC(=O)Nc1ccccc1)=N\NC(=O)COc1ccc(C)cc1Br
  VDR inh: -17%

C/C(Cl)=C\Cn1c(=O)c2c(nc3n2CCS3)n(C)c1=O
  VDR inh: 1%

CCc1ccccc1NC(=O)c1ccccc1Sc1ccc([N+](=O)[O-])cc1Cl
  VDR inh: 2%

CS(=O)(=O)N(CCc1ccccc1)CC(=O)Nc1ccc(Br)cc1F
  VDR inh: -21%

CCOC(=O)Cc1csc(NS(=O)(=O)c2ccc(OC)cc2)n1
  VDR inh: 2%

Cc1ccc(C)c(C(=O)n2cnnc2N)c1
  VDR inh: -17%

CS(=O)(=O)N(CCc1ccccc1)CC(=O)NCc1ccncc1
  VDR inh: -2%

CCOc1ccc(NC(=O)CSc2ncc3c(n2)-c2ccccc2N(Cc2ccccc2C)S3(=O)=O)cc1
  VDR inh: -11%

COc1ccc(OC)c(NC(=O)Nc2cccc(Cn3cccn3)c2)c1
  VDR inh: 10%

CN(C)C1C(=O)C(C(N)=O)C(=O)C2(O)C(=O)C3C(=O)c4c(O)ccc(Cl)c4C(O)C3CC12 (stereo not drawn)
  VDR inh: 1%

O=C(O)CCC(=O)Nc1ccc(Cc2ccc(NC(=O)CCC(=O)O)cc2)cc1
  VDR inh: 10%

CCn1c(=O)c(-c2cc(=O)[nH][nH]2)c(O)c2ccccc21
  VDR inh: 14%

CCn1nnc(NC(=O)c2ccc(C(C)(C)C)cc2)n1
  VDR inh: 5%

Cc1c(C(=O)N2CCOCC2)c(S(=O)(=O)Nc2cccc(F)c2)c(C)n1C
  VDR inh: -18%

COc1ccc(NC(=O)CNC(=O)c2ccco2)cc1
  VDR inh: -12%

CC(NC(=O)COC(=O)Cn1cc(C(F)(F)F)ccc1=O)c1ccccc1 (stereo not drawn)
  VDR inh: 4%

Nc1nc(SCCO)[nH]c(=O)c1NC(=O)c1ccccc1F
  VDR inh: 12%

CC(C)(C)c1n[nH]c(=S)n(/N=C/c2cccs2)c1=O
  VDR inh: 7%

C/C(=N\OC(=O)c1cccc(C(F)(F)F)c1)c1sc(-c2ccccc2)nc1C
  VDR inh: 7%

COCCn1c(SCC(=O)c2ccc3c(c2)OCCO3)nnc1-c1ccco1
  VDR inh: -4%

COC(=O)c1c(NC(=O)CCCOc2ccc(C(C)(C)C)cc2)sc2c1CCC(C)C2 (stereo not drawn)
  VDR inh: -3%

Cc1ccc(S(=O)(=O)NCC(=O)OCC(=O)NC(=O)NC2CCCC2)cc1
  VDR inh: -13%
